# TRPML1 ag = human mucolipin-1 channel agonism | AID 624414 | activation, % (concentration not given with the values) | Q9GZU1 | TRPML1-expressing cells, Ca2+ dye fluorescence, FDSS; host cell line not named in the record; reference of the full effect not given here | actives 0.12% (n = 410,000); in the data active = activation above about 50%; inconclusive = about 30% to 50%; inactive = below about 30%; also: 0% is about no effect; the text of the record puts the active cut at 80%
# Target sequence (Q9GZU1 whole entry, looked up): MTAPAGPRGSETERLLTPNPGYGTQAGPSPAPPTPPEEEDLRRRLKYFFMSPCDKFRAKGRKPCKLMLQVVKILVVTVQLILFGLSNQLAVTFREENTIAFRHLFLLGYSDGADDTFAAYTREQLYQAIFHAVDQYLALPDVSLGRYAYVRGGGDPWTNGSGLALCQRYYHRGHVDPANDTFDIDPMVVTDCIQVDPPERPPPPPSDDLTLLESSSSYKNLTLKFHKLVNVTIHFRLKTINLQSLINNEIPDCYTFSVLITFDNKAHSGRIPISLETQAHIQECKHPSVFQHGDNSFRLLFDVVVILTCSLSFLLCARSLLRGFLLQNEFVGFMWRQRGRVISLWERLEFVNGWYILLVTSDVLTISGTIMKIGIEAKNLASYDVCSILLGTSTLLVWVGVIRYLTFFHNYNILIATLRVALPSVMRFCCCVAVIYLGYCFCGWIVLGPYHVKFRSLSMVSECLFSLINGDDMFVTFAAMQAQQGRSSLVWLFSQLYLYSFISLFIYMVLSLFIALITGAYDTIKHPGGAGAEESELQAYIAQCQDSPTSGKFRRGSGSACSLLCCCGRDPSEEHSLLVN
#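 Tet-induced TRPML1-DL cells, 1,500 per well, cultured overnight, were loaded with a no-wash Ca2+ dye for 45–90 min. Calcium fluorescence was recorded on the FDSS for 110 s after compound addition, before the EC80 agonist (4 uM 54-4) was added.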
# CtBP-E1A inh = blocks the CtBP interaction with E1A | AlphaScreen GST-E1A/His-CtBP binding, 1536-well; active compounds read low; control for the full effect not named in the record | activity change, % (no concentration beside the values) | actives 0.49% (n = 340,000) | AID 651724; in the data active means activity change below about -65%; inconclusive means about -30% to -65%; inactive means above about -30%; also: % is scaled to controls: 0 for no effect and ±100 for the full control effect
#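 Homogeneous bead-based format: GST-tagged E1A captured on glutathione donor beads, His-tagged CtBP on nickel acceptor beads; compounds precede bead addition by 2 h at 37 °C.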
# TRPV1 potentiator = enhances activation of the human vanilloid receptor TRPV1; potentiation, % at 8.33 µM; Q8NER1; TRPV1-expressing cells, Fluo-8 calcium influx, capsaicin EC20 potentiation; host cell line not named in the record; control for the full effect not named in the record; actives 0.02% (n = 320,000); AID 540277; active means potentiation above 80%; inconclusive means 30% to 80%; inactive means below 30%; also: 0% is about no effect
#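 TRPV1-expressing cells were cultured overnight at 35.5C and loaded with Fluo-8 calcium dye for 40 to 90 min at room temperature. After a 10 s baseline, compound was added and calcium influx was read kinetically for 3 min (ex 480/em 520 nm).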
# Six1-Eya2 inh = Six1/Eya2 interaction inhibition. Q15475+O00167. AlphaScreen GST-Six1/His-Eya2 binding, biochemical; active compounds read low; control for the full effect not named in the record. activity change, % (test concentration not listed). actives 0.56% (n = 360,000). AID 651725; in the data active = activity change below about -65%; inconclusive = about -30% to -65%; inactive = above about -30%; also: % is scaled to controls: 0 for no effect and ±100 for the full control effect
#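 Compounds are tested against tagged Six1 and Eya2 proteins bridged by glutathione donor and nickel acceptor beads; after a one-hour incubation at 37 °C without light, AlphaScreen emission is recorded.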
# D2 PAM = positive allosteric modulators of human D2 dopamine receptor | DiscoveRx D2 beta-arrestin cells, luminescence, 90 min; 100% = 57 uM dopamine signal | potentiation, % (test concentration not listed) | actives 0.23% (n = 360,000) | AID 624464; active = potentiation of 50% or more; inconclusive = 30% to 50%; inactive = 30% or less;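 also: compound concentration not given in the record; tested on top of an EC20 dose of dopamine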
# Target sequence (P14416 whole entry, looked up): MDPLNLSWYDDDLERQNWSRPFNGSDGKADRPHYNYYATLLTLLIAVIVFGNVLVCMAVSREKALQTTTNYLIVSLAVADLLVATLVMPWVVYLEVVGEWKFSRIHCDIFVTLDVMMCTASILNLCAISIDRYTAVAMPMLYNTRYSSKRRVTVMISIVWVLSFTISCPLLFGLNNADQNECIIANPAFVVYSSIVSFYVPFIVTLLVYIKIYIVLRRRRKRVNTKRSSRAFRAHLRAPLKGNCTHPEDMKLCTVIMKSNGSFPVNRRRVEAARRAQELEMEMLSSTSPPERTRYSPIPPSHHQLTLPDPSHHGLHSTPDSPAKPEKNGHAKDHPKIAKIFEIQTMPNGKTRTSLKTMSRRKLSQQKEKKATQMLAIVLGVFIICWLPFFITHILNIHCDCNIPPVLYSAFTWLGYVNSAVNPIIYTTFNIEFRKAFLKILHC
#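 PathHunter beta-arrestin assay in DiscoveRx D2 cells. Compounds were added with an EC20 of dopamine (50 nM final) for 90 min at 37 deg C. Luminescence was read 1 h after detection reagent, with 57 uM dopamine as the EC100 control.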
# TRPML1 inh = blocks the human TRPML1 channel. TRPML1-inducible cells, Ca2+ dye fluorescence, FDSS; active compounds read low; inhibition of EC80 agonist-evoked calcium signal. activity change, negative = inhibition, % (test concentration not listed). actives 0.02% (n = 390,000); in the data active means activity change below about -50%; inconclusive means about -30% to -50%; inactive means above about -30%;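 also: stimulus is agonist 54-4 at its EC80 concentration; % is scaled to controls: 0 for no effect and ±100 for the full control effect; compound concentration not given in the record; the text of the record puts the active cut at -80%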
#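 Calcium fluorescence in TRPML1-DL cells induced overnight with Tet: a 110 s read after compound pin addition, then a 110 s antagonist read after challenge with 54-4 at 4 uM final (EC80).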
# An asterisk follows results filed as active; ? = inconclusive; / = no result given. This is a random part of the collection (roughly 0.95% active in at least one column).
no.	structure	TRPML1 ag	CtBP-E1A inh	TRPV1 potentiator	Six1-Eya2 inh	D2 PAM	TRPML1 inh
1	CC1CCN(C(=O)Cn2c(=O)n(CCCC(=O)NCc3ccco3)c(=O)c3sccc32)CC1	-0.6	22.3	2.1	1.2	-2.2	-9.1
2	CC(=O)c1ccc(Sc2ccccc2)cc1	-1.3	23.1	-3.4	23.4	0.8	1.1
3	COc1ccc(NC(=O)[C@H](C)NC(=O)C2CCN(S(=O)(=O)c3ccc(C)cc3)CC2)cc1OC	-0.3	-7.6	-8.7	-0.9	-9.0	-2.0
4	O=C(O)C1=CC[C@@H](c2ccc(Cl)cc2)N(S(=O)(=O)c2ccc(Cl)cc2)[C@H]1c1ccc(Br)cc1	0.9	4.1	/	-3.4	/	-10.6
5	O=c1c(C/C=C/c2ccccc2)c(O)ccn1CCc1c[nH]c2ccccc12	-0.8	-16.7	?	-16.7	-12.7	-0.2
6	Cc1ccc(=O)n(C(C(=O)NCc2ccco2)C(=O)c2ccc(F)cc2)c1 (centres undefined)	-0.4	3.4	3.4	3.1	-9.5	10.5
7	Cc1cc2oc(=O)cc(CN3CCc4ccccc43)c2cc1Cl	-0.2	-9.7	5.7	-11.7	-1.3	60.9
8	O=C(C1CCCCC1)N1CCC(c2nc3c(nnn3Cc3c(F)cccc3Cl)c(=O)[nH]2)CC1	-1.5	5.8	21.9	3.4	-7.0	-7.7
9	CCOC(=O)N1CCN(C(=O)C2CCN(C(=O)c3ccc([N+](=O)[O-])cc3)CC2)CC1	0.3	-0.1	17.5	2.1	1.6	-2.7
10	Cc1ccc(Nc2cc(C)nn2-c2nc(C)cc(C)n2)cc1	2.6	-28.7	2.3	-28.9	-11.8	0.5
11	COc1cccc(C(=O)NCCS(=O)(=O)NCCc2ccccc2)c1	-0.2	-8.8	-14.5	8.0	-12.8	6.9
12	CCOC(=O)CCNC(=O)N1CCCC(C(=O)c2cccc(Cl)c2)C1 (centres undefined)	0.1	/	2.5	5.0	-6.4	-6.4
13	CCOC(=O)Cc1nc2nc(C)cc(C)n2n1	-0.6	-0.2	6.5	2.1	-6.6	-7.0
14	COc1nc(OC)nc(N2CCC(C(=O)NCc3ccco3)CC2)n1	-0.8	3.3	3.8	0.0	1.9	3.7
15	COc1ccc(Cl)cc1NC(=O)c1[nH]c(C)c(C(C)=O)c1C	-0.1	8.4	21.7	8.5	-3.6	-6.1
16	COC(=O)c1c(-c2cccc(OC)c2)csc1N	1.2	-2.1	11.1	-20.7	-4.4	1.2
17	Cc1ccc(C)c(N2C(=O)CC(Cc3ccccc3)C2=O)c1 (centres undefined)	-0.2	2.8	?	-1.0	-3.1	26.4
18	CCCc1cc(=O)oc2c3c(cc(OCC(=O)NCc4ccccn4)c12)OC(C)(C)CC3	/	-2.6	-8.5	-7.4	-25.8	/
19	Cc1cc(C)c2c(N)c(C(=O)NCc3ccco3)sc2n1	1.3	-6.2	7.4	-2.2	12.0	3.5
20	O=C(NCCC1=CCCCC1)c1cc(COc2ccc(F)cc2Cl)on1	0.2	44.3	-16.4	36.3	-19.1	0.4
21	O=C(COc1nsnc1N1CCOCC1)N/N=C/c1ccccc1O	1.0	-6.4	25.3	-89.6*	21.5	-5.3
22	c1ccc(Cn2c(-c3ccccc3)c[n+]3c2SCCC3)cc1	1.1	48.2	18.8	30.0	-8.8	2.5
23	COc1ccc(-c2n[nH]nc2C2=CC(=O)CC(C)(C)C2)cc1	-0.5	4.2	/	1.4	6.0	-2.3
24	Cc1nnc(SCc2nc3sc4c(c3c(=O)[nH]2)CCCC4)[nH]c1=O	1.1	-22.2	-3.0	-23.0	-3.0	24.9
25	COCc1nnc(SCC(=O)NC(C)c2ccccc2)n1-c1ccccc1 (centres undefined)	2.5	12.6	4.9	2.7	-4.3	5.8
26	COc1ccc(Cl)cc1NC(=O)c1c(NCc2sccc2C)sc2c1CCCC2	3.1	/	?	/	/	7.7
27	COc1ccc(Br)cc1CN1CCN(C(=O)c2cccc(OC)c2OC)CC1	0.4	1.7	-4.3	-2.9	-28.6	-2.1
28	COc1ccc(CN2C(=NC(=O)CCc3ccccc3)SC3CS(=O)(=O)CC32)cc1 (centres undefined)	-1.0	-0.1	-4.0	2.2	-5.9	-11.9
29	O=C(N/N=C(\c1ccccc1)c1ccccn1)c1cccc([N+](=O)[O-])c1	3.8	/	-5.0	-90.9*	28.6	15.0
30	Cc1onc(-c2c(F)cccc2Cl)c1C(=O)NCc1ccco1	-0.5	0.0	-4.1	-6.0	-10.5	-9.0

# Record cards, from the list above.
# COc1nc(OC)nc(N2CCC(C(=O)NCc3ccco3)CC2)n1 is listed with TRPML1 ag = -0.8; CtBP-E1A inh = 3.3; TRPV1 potentiator = 3.8; Six1-Eya2 inh = 0.0; D2 PAM = 1.9; TRPML1 inh = 3.7
# COc1ccc(Br)cc1CN1CCN(C(=O)c2cccc(OC)c2OC)CC1 is listed with TRPML1 ag = 0.4; CtBP-E1A inh = 1.7; TRPV1 potentiator = -4.3; Six1-Eya2 inh = -2.9; D2 PAM = -28.6; TRPML1 inh = -2.1
# O=C(O)C1=CC[C@@H](c2ccc(Cl)cc2)N(S(=O)(=O)c2ccc(Cl)cc2)[C@H]1c1ccc(Br)cc1 is listed with TRPML1 ag = 0.9; CtBP-E1A inh = 4.1; TRPV1 potentiator = /; Six1-Eya2 inh = -3.4; D2 PAM = /; TRPML1 inh = -10.6

# 3 of the compounds above, as labelled records:
[16] COC(=O)c1c(-c2cccc(OC)c2)csc1N
  TRPML1 ag: 1.2
  CtBP-E1A inh: -2.1
  TRPV1 potentiator: 11.1
  Six1-Eya2 inh: -20.7
  D2 PAM: -4.4
  TRPML1 inh: 1.2
[28] COc1ccc(CN2C(=NC(=O)CCc3ccccc3)SC3CS(=O)(=O)CC32)cc1 (centres undefined)
  TRPML1 ag: -1.0
  CtBP-E1A inh: -0.1
  TRPV1 potentiator: -4.0
  Six1-Eya2 inh: 2.2
  D2 PAM: -5.9
  TRPML1 inh: -11.9
[25] COCc1nnc(SCC(=O)NC(C)c2ccccc2)n1-c1ccccc1 (centres undefined)
  TRPML1 ag: 2.5
  CtBP-E1A inh: 12.6
  TRPV1 potentiator: 4.9
  Six1-Eya2 inh: 2.7
  D2 PAM: -4.3
  TRPML1 inh: 5.8

# The listing continues:
no.	structure	TRPML1 ag	CtBP-E1A inh	TRPV1 potentiator	Six1-Eya2 inh	D2 PAM	TRPML1 inh
31	O=C(NC1CCCCC1)C(c1ccc2ncccc2c1)N(Cc1ccc2c(c1)OCO2)C(=O)c1cccs1 (centres undefined)	4.4	10.1	/	-6.0	-6.5	23.5
32	COc1ccc(C)cc1NC(=O)C1CCN(S(=O)(=O)c2ccc3c(c2)C(C)(C)C(=O)N3C)CC1	-0.9	2.0	9.1	-1.5	-3.2	-11.3
33	O=C/C(=C\Nc1ccccn1)c1nc2cc(Cl)ccc2o1	2.0	-4.8	-1.9	-1.2	-1.8	24.8
34	Cc1ccc(C)c(OCC(=O)NCCNC(=O)COc2cc(C)ccc2C)c1	-0.1	-0.3	-1.4	0.1	-3.6	3.9
35	CNC(=O)c1c(NC(=O)c2ccc(S(=O)(=O)N(C)c3ccccc3)cc2)sc2c1CCN(C(C)C)C2	7.3	7.4	-5.8	4.4	15.2	3.2
36	Cc1cnc(C(=O)OCc2nc3ccsc3c(=O)[nH]2)cn1	0.6	-29.4	0.0	-16.8	5.4	26.7
37	COc1cc(CN2CCC(C(=O)NC(c3ccccc3)c3ccsc3)CC2)cc(OC)c1 (centres undefined)	4.6	-14.6	/	-15.0	-20.6	/
38	O=C(C[n+]1ccccc1)N/N=C/c1cc(Br)cc(Br)c1O	0.5	6.0	8.4	-89.1*	-30.7	-12.7
39	CC/C(O)=C1\C(=O)CC(c2ccccc2)CC1=NCCc1c(C)[nH]c2ccc(C)cc12 (centres undefined)	0.4	3.9	-2.3	-0.2	-1.9	17.9
40	O=C(Cc1ccccc1)NC(Nc1cccc2ccccc12)C(Cl)(Cl)Cl (centres undefined)	-0.4	13.8	-23.1	9.2	1.0	-1.3
41	Cc1cc(-c2nnc3sc(-c4ccc(Cl)cc4Cl)nn23)n[nH]1	0.3	4.6	-4.6	-8.2	-6.9	-3.8
42	C=CCn1c(SCC(=O)Nc2nnc(CC)s2)nnc1-c1ccncc1	-0.3	-7.7	-6.6	-5.6	-8.2	14.6
43	C=CCSc1n[nH]c(=O)n1-c1cccc(C(F)(F)F)c1	-0.4	14.3	8.5	-21.5	-7.8	-6.0
44	NC(=O)CCN1CCN(C(=O)c2ccc3nc(Cc4cccc(Cl)c4)oc3c2)CC1	0.1	1.2	13.9	-0.7	4.1	23.1
45	O=c1[nH]c(C2CCN(S(=O)(=O)c3cccc(C(F)(F)F)c3)CC2)nc2c1nnn2Cc1cccc(F)c1	-1.5	-1.4	-2.3	?	-7.7	1.3
46	CCc1nc2c(OCc3ccc(F)c(F)c3)cccn2c1N(C)C(=O)c1ccncc1	-0.6	2.6	/	0.4	-7.0	3.1
47	Cn1c(CNC(=O)c2ccc(F)cc2)nc2ccccc21	-0.1	1.9	18.3	8.4	-6.5	-1.5
48	CCn1cc(C(=O)NCCC(=O)NCCCO)c(=O)c2cc3c(cc21)OCO3	0.5	/	?	7.2	-9.4	3.9
49	Cc1cccc(N2CCN(C(=O)C3(S(=O)(=O)c4ccc(Cl)cc4)CC3)CC2)c1C	0.4	7.7	?	-3.2	-8.0	31.8
50	c1ccc2c(c1)CCCN2Cc1nnnn1C1CCCC1	0.1	2.1	-6.4	-5.9	-14.4	-5.1
51	Cc1ccc(C(=O)OCC(=O)Nc2sc3c(c2C#N)CCCC3)cc1NC(=O)c1ccco1	0.4	-14.6	-14.1	-5.1	-10.2	-1.4
52	O=S(=O)(c1ccc(F)cc1)N1CCN(Cc2cc3c(cc2Br)OCCO3)CC1	2.4	0.2	3.0	-9.9	1.2	9.7
53	Cc1cc(CN2CCCCC2)oc1C(=O)O	-0.5	1.6	5.7	4.4	2.5	0.1
54	Cc1ccc(NS(=O)(=O)c2csc(C(N)=O)c2)cc1C	-1.5	2.9	13.4	-2.9	-2.6	-1.3
55	CCOC(=O)N1CCN(C(=S)Nc2cccc(C)c2)CC1	-1.0	4.5	-1.0	0.8	0.0	-6.2
56	CCOCCn1c(CC)nc2ccccc21	-1.0	18.4	3.6	-9.3	2.3	-3.5
57	CCOc1ccc(OCCC(=O)OC(C)C(=O)Nc2ccc(Cl)cn2)cc1 (centres undefined)	0.1	-1.1	1.8	-0.4	18.3	-2.8
58	CCCNc1nc2c(c(=O)n(C)c(=O)n2C)n1Cc1ccc(F)cc1	-0.9	-1.3	25.6	-4.1	-2.7	-1.3
59	CC(Oc1cccc2cccnc12)C(=O)N/N=C/c1ccccc1 (centres undefined)	-0.5	-17.4	-14.7	-5.3	-14.6	-9.5
60	COc1ccccc1CC(=O)Nc1ccc(S(=O)(=O)N(C)C2CCN(C)CC2)cc1	0.3	-10.5	1.2	4.6	-21.5	23.9
61	O=C(COC(=O)c1ccc(OC(F)F)cc1)Nc1cccc(S(=O)(=O)NC2=NCCC2)c1	-0.1	2.3	4.7	16.4	1.9	-5.6
62	C#CCOCCOCCOCCNc1nc(N2CCN(C(=O)[C@H](CO)n3cc([C@@H](N)C(C)C)nn3)CC2)nc(N2CCN(C(=O)[C@H](CCC(=O)O)n3cc([C@@H](N)[C@H](C)CC)nn3)CC2)n1	0.0	-4.6	/	-5.3	/	-7.3

# Screening results deposited in PubChem by National Center for Advancing Translational Sciences (NCATS).
